MLL AF4-AF9 inh: blocks AF4 peptide binding to human AF9 | 350,000 compounds, 0.47% hits | AlphaScreen, biotin-AF4 peptide binding to FLAG-AF9 | inhibition, % at 10 µM;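 active = every replicate reaching a set inhibition limit, whatever the replicate mean, cut at about 25% in these data; inconclusive = mean inhibition reaches that limit but some replicates miss it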;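 note: 0% = plate neutral control median and 100% = total signal loss; the record names both 10 and 1 µM as test concentration; the first replicate is given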
HNF4A DNA FP: change in binding of human HNF4 alpha to DNA | 360,000 compounds, 0.3% hits | AID 1224865 | activity change, % at 10 µM | HNF4a-FITC DNA binding, fluorescence polarization, 1 h | P41235; in the data active = activity change above about 30%, passing the limit was not always enough;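 note: controls were the assay level and a saturating level of protein; the project sought stronger binding though the title names inhibitors; some compounds called inactive have numbers as strong as hits; positive values seem to mean higher polarization but the record does not say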
Target sequence (P41235 whole entry, looked up): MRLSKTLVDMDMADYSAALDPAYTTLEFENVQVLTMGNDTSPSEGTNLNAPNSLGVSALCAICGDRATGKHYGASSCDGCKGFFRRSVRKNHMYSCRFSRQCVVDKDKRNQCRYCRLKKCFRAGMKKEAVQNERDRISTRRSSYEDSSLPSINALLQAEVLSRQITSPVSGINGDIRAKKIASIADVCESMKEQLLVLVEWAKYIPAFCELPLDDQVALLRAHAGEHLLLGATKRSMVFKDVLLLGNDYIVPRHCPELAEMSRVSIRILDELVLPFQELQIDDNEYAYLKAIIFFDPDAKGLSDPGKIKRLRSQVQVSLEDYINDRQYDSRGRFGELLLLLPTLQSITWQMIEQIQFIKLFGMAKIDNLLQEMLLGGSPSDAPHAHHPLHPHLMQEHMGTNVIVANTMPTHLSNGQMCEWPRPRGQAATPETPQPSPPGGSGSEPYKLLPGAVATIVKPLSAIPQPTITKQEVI
E coli growth: blocks Escherichia coli growth | OD600, 23 h; hits give low values | OD600 absorbance (concentration not given with the values) | 330,000 compounds, 0.21% hits;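 active = OD600 absorbance below the run mean of sample wells minus 3.6 SD, in any replicate, cut at about 0.56 in these data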;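 note: stock transfer was 300 nL into about 60 µL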
Ecoli rRNA inh: selective bacterial rRNA inhibition in E. coli; 350,000 compounds, 1.6% hits; AID 720706; E. coli WT GFP vs humanized-ribosome RFP mutants, fluorescence, 24 h; hits give low values; DMSO median 0, no signal -100; GFP signal change (wild-type ribosome), % (test concentration not listed);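 active = significant combined selectivity score with lowered wild-type GFP, culture density cut under 30%, mutant RFP and density less affected; inactive = any of these conditions unmet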; note: one replicate is shown; some compounds called inactive have numbers as strong as hits
Vif A3G: inhibitors of Vif binding to APOBEC3G peptide, primary screen, biochemical, TR-FRET, GST-Vif 1-94, biotin-A3G peptide, dose response retest (AID 1117319); TR-FRET GST-Vif / biotin-A3G peptide binding; higher % means a stronger effect; test concentration not given here; strong numbers were not always called active; inhibition, %, or IC50 in µM where a hit was titrated; 260,000 compounds, 0.57% hits;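 active = above the screen mean plus three standard deviations and confirmed in dose response; inconclusive = results disagree or hit not tested in dose response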;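 note: Vif residues 1-94 fused to GST binding biotinylated APOBEC3G peptide 110-148; 0% = full assay without inhibitor and 100% = GST in place of GST-Vif; retest series ran down from 100 µM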
ALR H2O2 inh: inhibitors of human sulfhydryl oxidase ALR; P55789; purified ALR, DTT oxidation, H2O2 HRP-luminol luminescence; inhibition, % (no concentration beside the values); 290,000 compounds, 3.8% hits; AID 485317;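 active = mean and each replicate at 75% or more; inconclusive = only one of the two met; inactive = neither met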;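 note: stock transfer was 7.5 nL into about 7.5 µL; 0% = neutral wells and 100% = wells with inactivated enzyme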
Target sequence (P55789 whole entry, looked up): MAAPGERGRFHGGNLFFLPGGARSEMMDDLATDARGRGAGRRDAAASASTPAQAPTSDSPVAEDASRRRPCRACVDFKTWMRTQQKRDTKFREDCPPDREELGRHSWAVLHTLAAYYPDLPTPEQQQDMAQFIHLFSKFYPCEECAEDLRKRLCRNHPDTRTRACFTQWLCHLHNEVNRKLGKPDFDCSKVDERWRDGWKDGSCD
FGF22 binding: shifts melting point of recombinant human FGF22; recombinant FGF22 thermal shift, SYPRO orange fluorescence; percent of sucrose octasulfate shift, DMSO zero; AID 651658; calls only at 9.99 µM; Q9HCT0; 340,000 compounds, 1.5% hits;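 active = melting point raised past a set limit in the mean and every replicate; inconclusive = no clear call; three in four hits are not shown here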
Target sequence (Q9HCT0 whole entry, looked up): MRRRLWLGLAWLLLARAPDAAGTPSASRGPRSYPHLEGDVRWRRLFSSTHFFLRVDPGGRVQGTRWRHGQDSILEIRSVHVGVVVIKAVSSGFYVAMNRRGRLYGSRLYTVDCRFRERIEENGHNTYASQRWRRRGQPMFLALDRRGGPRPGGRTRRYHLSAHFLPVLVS
Ecoli rRNA inh OD600: further read-out of Ecoli rRNA inh, marked with its call; OD600 change, %; measured here: OD600 growth;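 optical density of the mix in the first replicate; 0 = DMSO median and -100 = no signal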
Ecoli rRNA inh RFP: recorded beside Ecoli rRNA inh, whose call it bears; RFP signal change, %; measured here: RFP humanized mutant strains;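 first replicate; 0 = DMSO median and -100 = no signal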
* = called active by the depositor; i = inactive; ? = inconclusive; nt = no result given; + = active, no number. The list is partial (hit frequency here may not be typical).

SMILES	MLL AF4-AF9 inh	HNF4A DNA FP	E coli growth	Ecoli rRNA inh	Ecoli rRNA inh OD600	Ecoli rRNA inh RFP	Vif A3G	ALR H2O2 inh	FGF22 binding
O=C(NCC[C@H]1CC[C@@H](NC(=O)c2cnccn2)[C@@H](CO)O1)Nc1ccc(Cl)cc1	8.7	nt	nt	-5.5	0.5	6.8	nt	nt	i
O=C(C[C@@H]1C[C@@H]2c3cc(NC(=O)Nc4ccccc4)ccc3O[C@@H]2[C@H](CO)O1)NCCN1CCCCC1	8.7	nt	nt	2.5	9.8	0.4	nt	nt	i
Cc1nc(CCNC(=O)c2ccccc2)cs1	nt	-1.5	0.662	nt	nt	nt	3.3%	-6.0	nt
O=C(c1n[nH]c(=O)c2ccccc12)N1CCN(c2ccccc2Cl)CC1	nt	-1.0	0.728	nt	nt	nt	0.6%	-1.3	nt
CC(C)(C)c1ccc(C(=O)c2c[nH]c(C(=O)NCC3CCCO3)c2)cc1 (stereo not drawn)	nt	4.6	0.764	nt	nt	nt	2.5%	-10.3	nt
CN(C)CCN(C(=O)c1ccc(N2C(=O)CCC2=O)cc1)c1nc2cc3c(cc2s1)OCO3	nt	0.1	0.672	6.5	8.0	-5.1	-3.8%	14.2	i
CCCCC[C@H](O)/C=C/[C@@H]1[C@@H](C/C=C\CCCC(=O)O)[C@H]2CO[C@@H]1C2	-2.1	3.1	nt	1.8	-7.7	5.5	2.8%	nt	i
COc1ccc(-c2csc(Nc3ncccc3C)n2)cc1OC	nt	-0.1	0.686	nt	nt	nt	11.9%	-1.3	nt
CC=Cc1ccc2n(c1=O)C[C@H]1[C@H](CO)[C@@H](C(=O)N3CCc4ccccc4C3)N(C(=O)CC)[C@@H]21 (mixture of isomers)	-0.1	nt	nt	2.3	1.2	0.9	nt	nt	i
N=c1c(C(=O)NC2CCCC2)cc2c(=O)n3ccccc3nc2n1Cc1ccccc1	-0.7	2.4	0.695	14.4	4.5	2.4	nt	-0.4	i
Cc1ccc(S(=O)(=O)Nc2cccc3c2O[C@H](CN(C)Cc2ccc(C(F)(F)F)cc2)[C@@H](C)CN([C@H](C)CO)C3=O)cc1	3.1	nt	nt	2.3	3.4	0.1	nt	nt	i
COC(=O)C1=CN(c2ccc(OC)cc2)C(N)=C(C#N)C1c1ccc(OC)cc1 (stereo not drawn)	2.9	-4.3	nt	-26.9	-31.2	-3.7	nt	nt	i
COc1ccc(C(=O)N/N=C2\SCC(=O)N2Cc2ccc3c(c2)OCO3)c(OC)c1	-1.4	-1.2	nt	-4.0	-1.8	-3.8	-9.1%	-1.2	i
COc1ccc(CCNC(=O)c2nnn(CC(=O)Nc3c(C)cc(C)cc3C)c2N)cc1OC	0.8	6.3	0.728	2.8	10.8	0.6	-5.0%	-5.2	i
CC1=CC(=O)CC(C)(C)[C@@]1(O)/C=C/[C@@H](C)O[C@@H]1O[C@H](CO)[C@@H](O)[C@H](O)[C@H]1O	-0.9	-1.7	0.732	-0.3	4.4	-1.6	nt	nt	i
CN(CC(=O)Nc1cccc(F)c1)C(=O)CN1C(=O)NC2(CCCC2)C1=O	-5.8	0.8	0.695	12.8	9.1	1.9	-2.1%	-2.0	i
CCS(=O)(=O)Nc1ccc2c(c1)C(=O)N(C)C[C@H](OC)[C@H](C)CN(C(C)=O)[C@H](C)CO2	-0.6	nt	nt	0.5	-3.8	-0.9	nt	nt	i
CCc1noc(C)c1C(=O)NNC(=O)c1nn(CC)c(=O)c2ccccc12	-0.2	2.9	0.704	-3.7	2.9	-1.8	0.4%	2.4	i
Nc1nc(C23CC4CC(CC(Cl)(C4)C2)C3)cs1	5.6	-2.9	0.684	-10.9	-10.2	-3.2	5.8%	nt	i
Nc1nc(Nc2cccc(F)c2)nc(NCc2ccco2)c1[N+](=O)[O-]	0.0	8.6	0.713	2.6	13.5	34.1	0.2%	3.7	i
Cc1cc(C(F)(F)F)c2c(n1)sc1c(O)cc(=O)[nH]c12	-20.6	5.2	0.684	4.6	-1.2	14.4	30.6%	-1.7	i
Cc1noc(C)c1S(=O)(=O)N(C)C[C@@H]1Oc2ccc(NC(=O)CCC(F)(F)F)cc2CC(=O)N([C@@H](C)CO)C[C@H]1C	1.7	nt	nt	-2.0	-7.9	-1.4	nt	nt	i
COc1ccc(CNc2nc3c(c(=O)[nH]c(=O)n3C)n2Cc2ccccc2C)cc1	?	-5.0	0.689	4.1	9.3	7.0	0.0%	4.0	i
Cc1noc(C)c1C(=O)N(C)C[C@@H]1OCc2ccccc2-c2ccccc2C(=O)N([C@H](C)CO)C[C@H]1C	-0.3	nt	nt	0.8	2.0	0.5	nt	nt	i
Cc1cc(C(=O)Nc2cccc3c2O[C@H](CN(C)S(=O)(=O)c2ccccc2)[C@@H](C)CN([C@@H](C)CO)C3=O)n(C)n1	0.2	nt	nt	-0.8	-5.2	-0.1	nt	nt	i

(more compounds)
SMILES	MLL AF4-AF9 inh	HNF4A DNA FP	E coli growth	Ecoli rRNA inh	Ecoli rRNA inh OD600	Ecoli rRNA inh RFP	Vif A3G	ALR H2O2 inh	FGF22 binding
O=C(/C=C/c1ccco1)Nc1ccccc1N1CCCCC1	16.9	3.5	nt	-39.1	-56.9	4.0	nt	3.2	i
C[C@@H]1CN([C@H](C)CO)S(=O)(=O)c2ccc(C#Cc3ccc(F)cc3)cc2O[C@H]1CN(C)C(=O)CN(C)C	18.7	nt	nt	-4.2	0.3	14.1	nt	nt	i
CCOC(=O)c1cc(/C(C)=N/OC(=O)c2ccc(Cl)cc2)on1	-0.8	-0.9	nt	5.7	11.8	0.1	-5.8%	1.8	i
CCC(=O)Nc1c2c(nn1-c1cccc(Cl)c1)CSC2	1.7	0.0	0.736	0.4	-3.6	0.0	1.0%	-23.6	i
CCN(CC)C(=O)Cn1cc(S(=O)(=O)CC(=O)Nc2ccc(F)cc2)c2ccccc21	0.4	1.0	0.739	2.3	-1.5	-3.8	-8.5%	nt	i
COc1ccc(CN2CCN(Cc3cc4ccccc4o3)CC2CCO)cc1C (stereo not drawn)	5.9	-1.9	0.68	-9.0	-5.2	1.8	nt	-0.3	i
CCOC(=O)C(C)(C)NS(=O)(=O)c1ccc(Cl)c([N+](=O)[O-])c1	-4.4	-1.2	0.675	nt	nt	nt	nt	nt	i
COc1ccc(/C=C(/NC(=O)c2ccco2)C(=O)N2CCCCCC2)cc1OC	-0.8	-0.8	0.67	4.7	7.4	2.0	-2.3%	2.9	i
O=C1C=C(c2ccc(O)cc2)C[C@@H](c2ccc(Cl)cc2)C1	-7.0	5.6	nt	-15.8	-33.9	-9.7	nt	10.6	i
COc1ccc(NC(=O)Nc2ccc3c(c2)C(=O)N([C@@H](C)CO)C[C@@H](C)[C@@H](CN(C)C(=O)Nc2ccccc2)O3)cc1	1.5	nt	nt	3.4	5.2	2.8	nt	nt	i
CC(C)NC(=O)Nc1ccc2c(c1)CC(=O)N([C@H](C)CO)C[C@@H](C)[C@@H](CN(C)C)O2	1.6	nt	nt	2.7	2.3	-0.5	nt	nt	i
O=C(C[C@H]1C[C@@H]2c3cc(NC(=O)C4CCOCC4)ccc3O[C@@H]2[C@@H](CO)O1)NCc1ccc(Cl)cc1	0.6	nt	nt	-4.8	-2.7	-2.0	nt	nt	i
Cn1nc(C(F)(F)F)cc1-c1ccc(S(N)(=O)=O)s1	-8.4	7.1	0.645	4.3	3.8	0.3	6.5%	-1.7	i
CCCCCNc1nc(NCCCO)c(C#N)c2c1CN(C)CC2	nt	-3.0	0.789	nt	nt	nt	1.4%	-2.4	nt
COCC(=O)N(C)C[C@@H]1Oc2cc(-c3ccc(C)cc3)ccc2S(=O)(=O)N([C@@H](C)CO)C[C@H]1C	-1.3	nt	nt	-6.2	-12.2	0.1	nt	nt	i
CCOC(=O)N1CCN(C(=O)c2cc(COc3cccc(C(F)(F)F)c3)on2)CC1	-0.5	1.8	0.639	-7.9	-25.0	-3.7	1.7%	0.5	i
Oc1ccc(NCc2ccc(OCc3ccccc3)cc2)cc1	4.3	0.1	0.67	6.7	4.7	21.5	17.4%	48.7	i
COc1ccccc1-n1c(SCC(=O)N2CCCCC2)nc2cccnc21	nt	2.7	0.731	nt	nt	nt	-2.8%	-22.3	nt
Cc1ccc(C(=O)N/C(=C/c2ccccc2)C(=O)NC(Cc2ccccc2)C(=O)O)cc1 (stereo not drawn)	nt	-0.7	0.674	nt	nt	nt	-4.4%	6.7	nt
COCC(=O)N1[C@@H](CO)[C@@H]2c3ccccc3NC[C@@H]21	-0.7	nt	nt	5.8	8.9	4.0	nt	nt	i
O=C(CC1Sc2ccccc2NC1=O)Nc1cccc(C(=O)O)c1 (stereo not drawn)	-7.6	-20.3	0.784	18.6	17.4	4.2	11.6%	-1.5	i
COCC#Cc1ccc2c(c1)O[C@H](CN(C)C(=O)NC(C)C)[C@H](C)CN([C@H](C)CO)S2(=O)=O	1.6	nt	nt	-0.2	0.0	-6.0	nt	nt	i
O=C(c1ccncc1)N(c1ccc2oc3c(c2c1)CCCC3)S(=O)(=O)c1cccc([N+](=O)[O-])c1	-0.8	-5.2	0.692	-12.8	-38.0	2.6	-6.2%	-4.6	i
CCOC(=O)N1CCN(C(=O)C2CCN(S(=O)(=O)c3cc(C)ccc3OC)CC2)CC1	-0.5	-1.9	0.766	-5.0	8.0	5.4	nt	3.0	i
Cc1ccc(NC(=O)c2ccc(S(=O)(=O)NCc3cccnc3)cc2)c(C)c1	2.5	-2.5	0.669	-8.0	-6.8	-0.9	-0.2%	2.2	+

(listing goes on)
SMILES	MLL AF4-AF9 inh	HNF4A DNA FP	E coli growth	Ecoli rRNA inh	Ecoli rRNA inh OD600	Ecoli rRNA inh RFP	Vif A3G	ALR H2O2 inh	FGF22 binding
CC(C)NC(=O)Nc1ccc2c(c1)C(=O)N([C@@H](C)CO)C[C@H](C)[C@@H](CN(C)C(=O)NC(C)C)OCCCC[C@H](C)O2	-1.2	nt	nt	-2.2	1.9	-3.5	nt	nt	i
CN1C(=S)SC(/[N+]([O-])=C\c2ccco2)C1(C)C (stereo not drawn)	nt	0.2	0.754	nt	nt	nt	-6.0%	-2.2	nt
Cc1ccc(-c2c(C)c(-c3ccc(F)cc3)nc(N)c2C#N)o1	nt	6.3	0.775	nt	nt	nt	-0.6%	-6.4	nt
O=C1NC2(CCCCC2)N(C(=O)c2ccccc2)C2=C1CCCC2	-1.0	1.5	0.664	2.6	-0.2	-2.5	-6.3%	4.3	i
COc1ccc(OC)c(/C=C/C(=O)OCC(=O)N2C(C)CCCC2C)c1 (stereo not drawn)	-3.3	2.0	0.639	-13.3	-8.3	1.0	1.4%	-6.2	i
COc1ccc(NC(=O)c2oc3ccccc3c2C)c(OC)c1	nt	-2.6	0.743	5.6	19.1	2.0	3.6%	-12.2	nt
COc1ccc(CNc2cc([N+](=O)[O-])ccc2OC)cc1	13.1	-4.2	0.697	-20.8*	2.4*	4.3*	-4.8%	36.1	i
CN(C)N1C(N)=C(C#N)C(c2ccccc2)C2=C1CC(C)(C)CC2=O (stereo not drawn)	-0.1	2.5	0.712	17.0	15.4	1.5	nt	11.5	i
CCN(C(=O)COC(=O)CCNS(=O)(=O)c1ccccc1F)c1c(N)n(Cc2ccccc2)c(=O)[nH]c1=O	1.0	0.1	0.701	-1.0	7.4	-1.9	nt	-6.6	i

Assay outcomes as filed in PubChem BioAssay.
